Compound activity as filed in PubChem BioAssay.
CBX7 AlphaScr: CBX7 chromodomain binding inhibitors, primary screen, biochemical, AlphaScreen; AlphaScreen His6-CBX7 / biotin-H3K27me3 peptide binding; stronger effect = lower value; hit rate 1.1% among 66,000; Chromobox protein homolog 7 (Homo sapiens), O95931; normalised signal (fraction of DMSO) (concentration not given with the values); AID 1224903, 2016; in the data active means normalised signal below about 0.5;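 further: 100 nL library stock added to about 20 µL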
Target sequence (O95931 whole entry, looked up): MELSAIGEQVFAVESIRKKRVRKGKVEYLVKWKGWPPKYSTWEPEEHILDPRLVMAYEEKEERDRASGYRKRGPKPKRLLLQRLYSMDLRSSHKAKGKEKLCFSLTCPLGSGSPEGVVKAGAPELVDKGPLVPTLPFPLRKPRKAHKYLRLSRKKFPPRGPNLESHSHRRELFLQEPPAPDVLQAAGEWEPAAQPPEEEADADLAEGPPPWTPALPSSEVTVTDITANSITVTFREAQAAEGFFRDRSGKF
CBX7 AlphaScr z-score: second read-out of CBX7 AlphaScr, no call of its own (marks repeat the call); z-score; measured here: z-score of CBX7 signal; some inactives read as strong as hits; reference of the scale not given here;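 same signal on another scale; lower means less binding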
* hit, by the source's call; & = joins results of further samples. These rows are one share of the data. The share of hits here may be higher or lower than overall.

SMILES	CBX7 AlphaScr	CBX7 AlphaScr z-score
CCN1CCN(c2cc(C)c3cc(NC(=O)Cc4ccc(OC)cc4)ccc3n2)CC1	1.1	0.45
CCOC(=O)C1CCN(Cc2cn3c(-c4cccc(Br)c4)nnc3s2)CC1	0.89	-1.4
CN(C)C(=O)N1CCN(c2nc(-c3ccccc3)cs2)CC1	0.99	-0.2
Cc1c(NC(=O)c2ccc(OCc3ccccc3)cc2)cccc1-c1nc2ccccc2s1	1	0.07
Clc1ccc2nc(-c3ccccc3)nc(N3CCCCC3)c2c1	1.4	0.38
CN(CC(=O)Nc1ccc(F)c(F)c1)S(=O)(=O)c1cccc2cccnc12	0.95	-1.1
CCCCCn1c(=O)[nH]c2cc(C(=O)N3CCN(c4cccc(Cl)c4)CC3)ccc2c1=O	1	0.17
Cc1ccc(OCC(O)Cn2c(=N)n(Cc3ccccc3)c3ccccc32)cc1 (stereo not drawn)	0.84	-1
O=C(CCN1C(=O)c2ccccc2C1=O)NCCc1ccccc1	1.1	1.5
CCc1ccc(NC(=O)C2CCN(c3nnc(-n4cccc4)s3)CC2)cc1	1	1.1

Not a retest: 2 of the compounds above.
SMILES	CBX7 AlphaScr	CBX7 AlphaScr z-score
O=C(CCN1C(=O)c2ccccc2C1=O)NCCc1ccccc1	1.1	1.5
CCc1ccc(NC(=O)C2CCN(c3nnc(-n4cccc4)s3)CC2)cc1	1	1.1

Additional structures.
SMILES	CBX7 AlphaScr	CBX7 AlphaScr z-score
Cc1ccc2nc(-c3ccc4c(c3)OCCO4)cc(C(=O)O)c2c1	0.95	-0.56
CCCNC(=O)Cn1cnc2sc(C(=O)NCc3cccnc3)c(C)c2c1=O	1	0.84
O=C(CSc1oc(-c2cccs2)nc1S(=O)(=O)c1ccc(Cl)cc1)NCC1CCCO1 (stereo not drawn)	0.93	-0.12
CC1(C)CC(=O)c2sc(NC(=O)c3ccccc3F)nc2C1	0.97	-0.98
CCOC(=O)C1CCCN(c2cc(=O)n(-c3ccccc3Cl)c(=O)[nH]2)C1 (stereo not drawn)	0.96	-0.77
COc1ccc2ccccc2c1-c1nnc2ccc(C(F)(F)F)cn12	0.86	-2.3
O=C(NC1CCCCC1)C(c1ccc(Cl)cc1)N(Cc1ccccc1)c1ccccc1 (stereo not drawn)	1	2
Cc1ccc(-c2nc(N3CCN(c4ccccc4Cl)CC3)nc3ccccc23)cc1	2.5	24
O=C(C1CC1)N1CCc2cc(S(=O)(=O)NCCc3ccccc3)ccc21	1	0.81
Cc1ccccc1NC(=O)C1CCN(Cc2cnn(-c3ccccc3)c2-n2cccc2)CC1	0.97	-1.2
Cc1ccc(-c2nn(CC(=O)Nc3cc(C)ccc3C)c(=O)c3ccccc23)cc1	1.1	1.5
O=C(NC1CC1)c1ccc2c(c1)N(Cc1ccc(Cl)cc1)C(=O)c1ccccc1S2=O (stereo not drawn)	1	1.9
COc1cc(C2C(N3C(=O)c4ccccc4C3=O)C(=O)N2c2cc(C)cc(C)c2)cc(OC)c1OC (stereo not drawn)	0.79	-5.7
CCCCc1ccc(-c2ccc(Br)cc2)nc1	1.3	2.2
CC1CCN(S(=O)(=O)c2ccc(F)c(C(=O)Nc3ccc(Cl)cc3)c2)CC1	1.1	1.4
Cc1ccc(NC(=O)c2sc3ncn(Cc4cccc(F)c4)c(=O)c3c2C)cc1	1	0.071
COc1ccc(CCN2CC34C=CC(O3)C(C(=O)NCc3ccc(C)cc3)C4C2=O)cc1OC (stereo not drawn)	1.1	2.1
COc1ccc(-c2cc(C(=O)NCCCN3CCOCC3)c3ccccc3n2)c(OC)c1	1	0.26
COc1ccc(-c2cc(C(=O)Nc3ccc(Br)c4cccnc34)c3ccccc3n2)cc1	1	0.33
COc1cccc(-n2nc(C(=O)Nc3ccc(F)c(Cl)c3)c3ccccc3c2=O)c1	1	0.14
Cc1ccc(S(=O)(=O)C2(C(=O)Nc3cccc(F)c3)CC2)cc1	1.2	4.2
Cc1ccc(Nc2nc(C(F)(F)F)c(-c3cccc(Cl)c3)s2)c(C)c1	1.1&1	1.3&0.99
CCc1nc2c(cnn2-c2ccc(Cl)cc2)c(=O)n1-c1ccc2c(c1)OCCO2	0.85	-2.3
O=C(CC1OCCN(Cc2ccccc2)C1=O)Nc1ccc(Br)cc1Br (stereo not drawn)	1.1	0.45
O=C(O)CCNc1ncnc2ccc(Br)cc12	1.1	1.1
CCN(CC)S(=O)(=O)c1ccc2c(c1)N(CC(=O)Nc1ccc(F)cc1F)C(=O)CS2	1	0.22
Cc1nc2ccc(S(=O)(=O)N(C)CC(=O)NC(C)(C)C)cc2s1	1.3	1.5
CCCOC(=O)c1cc(-c2ccc(OC)cc2)nc2ccc(Cl)cc12	1.6	2.1
Cc1cccc(Cc2cnc(NC(=O)c3ccc(Br)cc3)s2)c1	0.99	-0.29
O=C(O)c1ccc2c(c1)N(Cc1ccc(Cl)cc1)C(=O)c1ccccc1S2=O (stereo not drawn)	1	0.24
Cc1c(C(=O)O)cnc2cc(-c3ccc(Cl)cc3)nn12	1	0.033
Cc1nnc2ccc(NCc3ccccc3)nn12	0.92	-1
COc1ccc(CN2C(=O)c3cccnc3C2Nc2ccc(C)cc2)cc1 (stereo not drawn)	0.5	-6.4
Cc1cc(OCc2nc(-c3ccccc3)no2)ccc1Cl	1.1	2.1
Cn1nc(-c2ccc(OCC(=O)Nc3ccc(Cl)cc3)cc2)c2ccccc2c1=O	0.98	-0.95
CCC(C)NC(=O)CCc1c(C)nc2c(-c3ccccc3)c(C)nn2c1C (stereo not drawn)	1.1	1.4
CCCCNC(=O)c1ccc2c(c1)N(Cc1ccccc1)C(=O)c1ccccc1S2(=O)=O	1	0.62
Cc1ccc(N2CC(C(=O)NC3CC3)CC2=O)cc1 (stereo not drawn)	1	0.04
CC(C)CCNC(=O)c1cc(=O)[nH]c2ccc(S(=O)(=O)N3CCC(C)CC3)cc12	1	-0.02
CCCc1ccc(-c2ccc(C(=O)Nc3ccc(C)cc3Br)cc2)nc1	1.1	1.8
CCc1ccc(Nc2cc(C(=O)NCC(OC)OC)c3ccccc3n2)cc1	1	0.25
Cc1ccc2nc(-c3ccccc3)cc(C(=O)Nc3ccccc3)c2c1	1.2	1.9
CN1CCc2c(sc(NC(=O)c3ccc(S(=O)(=O)N4CCCCC4)cc3)c2C(N)=O)C1	0.85	-2.6
COc1ccc(S(=O)(=O)N(CC(=O)Nc2cccc(C)c2)c2ccc(C)cc2)cc1	0.96	-0.97
CCc1ccc(-c2cc(C(=O)NCCc3ccc(OC)cc3)c3ccccc3n2)cc1	1.2	0.59
Cc1cc(NC(=O)c2csc3c2CCCCC3)ccc1Br	1.2	5.6
O=c1[nH]c(Nc2nc3ccccc3s2)nc2c1CCCC2	1.1	0.97
COCCN(CCOC)S(=O)(=O)c1ccc(C(=O)Nc2nc(-c3ccncc3)cs2)cc1	1	0.58
Cn1nc(CC(=O)Nc2ccc(Cl)c(C(F)(F)F)c2)c2ccccc2c1=O	1.2	2.4
CC(=O)NC1C(OCc2cccc(Br)c2)OC(COC(C)=O)C(OC(C)=O)C1OC(C)=O (stereo not drawn)	1.1	2

(listing goes on)
SMILES	CBX7 AlphaScr	CBX7 AlphaScr z-score
Cc1c(CCNS(=O)(=O)c2ccc(Br)cc2)c2ccccc2n1Cc1ccccc1	0.99	-0.056
CCCS(=O)(=O)c1ccc2nc(NC(=O)OC)[nH]c2c1	0.98	-0.86
CN(C(=O)c1cc(-c2ccccc2O)on1)c1ccccc1	0.91	-2.8
O=C(Nc1cccnc1)c1cc2n(n1)C(C(F)(F)F)CC(c1ccc(Cl)cc1)N2 (stereo not drawn)	1	-0.034
CCOC(=O)N1CCN(c2c(OCC)c(=O)c2=O)CC1	1	0.37
COc1cccc(-c2cc(C(=O)NCC(C)C)no2)c1	1.2	0.89
CCn1c(C(=O)N2CCC(C(=O)NC3CC3)CC2)cc2sccc21	1	0.088
Cc1oc(-c2cccc(F)c2)nc1CSCC(=O)Nc1cccnc1Cl	1	0.24
CC(=O)N1CCc2cc(S(=O)(=O)N3CCCCCC3)ccc21	1.2	2
Cc1sc(NC(=O)c2ccccc2)c(CNCCO)c1C	0.85	-0.97
CCN1C(=O)C(Cc2nc3ccccc3c(=O)n2-c2ccccc2)c2ccccc21 (stereo not drawn)	0.98	-0.59
Cc1cc(N2CCN(C)CC2)nc2ccc(NC(=O)CCC(=O)Nc3ccc4c(c3)OCCO4)cc12	0.97	-1.4
COc1ccc(-c2cc3cc(OC)c(OC)cc3c(Cc3ccc(OC)c(OC)c3)n2)cc1	0.96	-0.61
Cn1c(C(=O)N2CCCC(C(=O)N3CCN(c4ccccn4)CC3)C2)cc2sccc21 (stereo not drawn)	0.97	-0.99
Cc1ccc(S(=O)(=O)c2cn(CC(=O)Nc3ccc(C)c(Cl)c3)c3ccccc3c2=O)cc1	0.87	-1.8
Clc1ccc(-c2nc(Nc3ccc4c(c3)OCCO4)c3ccccc3n2)cc1	1.1	1.9
Cc1oc(-c2ccc(Cl)cc2)nc1CN1CCC(C(=O)NCCN2CCCC2)CC1	1.1	2.6
COC(CNC(=O)c1cc2c(-c3ccccc3F)nn(C)c2s1)OC	1.1	0.93
Cc1ccccc1CN1C(=O)c2ccccc2Sc2ccc(C(=O)NC(C)c3ccccc3)cc21 (stereo not drawn)	0.98	-0.95
O=C(CSc1nnc(C2COc3ccccc3O2)o1)Nc1nccs1 (stereo not drawn)	0.75	-1.6
CC(=O)N1CCc2cc(S(=O)(=O)NCCCN3CCN(C)CC3)ccc21	1.1	0.54
Cc1cc(OCc2nc(Cc3ccc(Cl)cc3)no2)ccc1Br	2.2	5.2
COc1ccc(OC)c2[nH]c(=O)c(CCNC(=O)C(C)C)cc12	0.98	-0.34
Cc1c(C(=O)NCc2ccccc2Cl)oc2ccc(S(=O)(=O)N3CCC(C)CC3)cc12	0.99	-0.38
CC1CCN(S(=O)(=O)c2ccc(F)c(C(=O)Nc3ccc(C(C)C)cc3)c2)CC1	1.2	2.6
O=C(Cn1nc(-c2ccccc2)c2cc(Cl)ccc21)NC1CC1	1	1.1
CCc1ccc(NC(=O)c2cn(-c3ccc(OC)cc3)c(=O)c3ccccc23)cc1	0.81	-2.6
Cc1oc(-c2ccccc2F)nc1CN1CCC(C(=O)NCCN2CCCC2)CC1	1.1	1.6
Cc1sc2ncn(Cc3ccc(Cl)cc3)c(=O)c2c1C	1	-0.051
COc1ccc(OC)c2[nH]c(=O)c(CCNC(=O)c3ccc(F)c(F)c3)cc12	1	0.44
CCCCN(C)CCCNC(=O)CN1N=C(c2ccc(Cl)cc2)CCC1=O	1.2	2.6
O=S(=O)(c1cccnc1)N1CCN(c2cccc(C(F)(F)F)c2)CC1	0.99	-0.27
COc1ccc(OC)c(CN2C(=O)c3ccccc3C2C(=O)NCCc2ccccc2)c1 (stereo not drawn)	1	-0.016
Cc1cc(C(=O)Nc2cnn(Cc3ccc(Cl)cc3Cl)c2)no1	1	0.82
Cc1ccc(C)c(CN2C(=O)CSc3ccc(C(=O)NCCCN4CCCCCC4)cc32)c1	0.98	-0.43
CC1CCCCN1C(=O)CSc1nnc(-c2ccc(F)cc2)o1 (stereo not drawn)	0.92	-0.17
COc1ccc(C2C=C(Nc3ccccc3)C(=O)N2c2ccccc2)c(OC)c1 (stereo not drawn)	0.93	-1.9
O=C(NC1CCCCC1)C(=O)c1c(-c2ccccc2)[nH]c2ccccc12	1	0.4
CC(=O)NCCc1nc2ccccc2n1CCOc1cccc(C)c1	1	0.89
c1ccc(-c2nnc(-c3ccccn3)nc2-c2ccccc2)cc1	0.05*	-1.6*
CCN(Cc1ccccc1)C(=O)Cn1cnc2c1c(=O)n(C)c(=O)n2C	0.99	-0.15
Cc1cc(=O)n2nc(N3CCC(C(=O)NCCc4ccccc4)CC3)sc2n1	1	1.1
OC(CN1C2=NCCCN2c2ccccc21)c1ccc(Br)cc1 (stereo not drawn)	1	0.26
O=C(O)CC(Nc1ncnc2ccccc12)C(=O)O (stereo not drawn)	1	1
Cc1cccc(C)c1OCC(=O)Nc1c(C(=O)c2ccc(F)cc2)oc2ccccc12	1.1	0.53
O=C(CCn1c(=O)[nH]c2ccccc2c1=O)NCCCN1CCN(c2cccc(Cl)c2)CC1	1	0.015
Cn1c(=N)n(CC(=O)c2ccc(Cl)c(Cl)c2)c2ccccc21	1	0.21
CCC(Cc1ccccc1)NC(=O)CSCc1cnn(-c2ccccc2)c1-n1cccc1 (stereo not drawn)	1	0.57
CC(C)NC(=O)COc1ccc(-c2nn(C)c(=O)c3ccccc23)cc1	1	1.2
CCC(Cc1ccccc1)NCc1c(C(=O)O)c(C)n(Cc2ccccc2)c1C (stereo not drawn)	1	0.54

In a second layout: entries from further up.
| compound | CBX7 AlphaScr | CBX7 AlphaScr z-score |
| --- | --- | --- |
| COc1cc(C2C(N3C(=O)c4ccccc4C3=O)C(=O)N2c2cc(C)cc(C)c2)cc(OC)c1OC (stereo not drawn) | 0.79 | -5.7 |
| Cc1nnc2ccc(NCc3ccccc3)nn12 | 0.92 | -1 |
| O=C(C1CC1)N1CCc2cc(S(=O)(=O)NCCc3ccccc3)ccc21 | 1 | 0.81 |
| O=C(Cn1nc(-c2ccccc2)c2cc(Cl)ccc21)NC1CC1 | 1 | 1.1 |
| Cc1nc2ccc(S(=O)(=O)N(C)CC(=O)NC(C)(C)C)cc2s1 | 1.3 | 1.5 |
| Cc1ccc(S(=O)(=O)C2(C(=O)Nc3cccc(F)c3)CC2)cc1 | 1.2 | 4.2 |
| COc1cccc(-n2nc(C(=O)Nc3ccc(F)c(Cl)c3)c3ccccc3c2=O)c1 | 1 | 0.14 |
